GLA inh pH 4.5: inhibitors of human alpha-galactosidase A at pH 4.5 | P06280 | purified enzyme, 4-MU-alpha-Gal fluorescence, pH 4.5 | activity change, negative = inhibition, % at 105 µM | 230,000 tested, under 10 active | AID 1467; inconclusive = small, poorly fitted or top-dose-only inhibition, or a rising curve; inactive = flat fitted curve, though single readings scatter; no compound was filed as active;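 further: 0% = full activity with enzyme and -100% = basal without enzyme; dose as in the result columns while the protocol names 77 µM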
Target sequence (P06280 whole entry, looked up): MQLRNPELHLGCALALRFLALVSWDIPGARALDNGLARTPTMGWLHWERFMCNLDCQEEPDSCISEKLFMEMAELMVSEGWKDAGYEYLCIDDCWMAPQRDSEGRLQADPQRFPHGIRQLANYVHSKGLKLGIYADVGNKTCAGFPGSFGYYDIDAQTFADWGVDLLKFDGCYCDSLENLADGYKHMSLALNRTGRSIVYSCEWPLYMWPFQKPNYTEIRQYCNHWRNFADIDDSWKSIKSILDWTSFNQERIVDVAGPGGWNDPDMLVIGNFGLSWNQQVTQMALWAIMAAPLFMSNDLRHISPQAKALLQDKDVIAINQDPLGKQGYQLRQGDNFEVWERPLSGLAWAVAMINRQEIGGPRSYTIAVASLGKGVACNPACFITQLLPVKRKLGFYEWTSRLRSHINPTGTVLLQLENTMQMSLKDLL
Rango-impB inh: inhibitors of Rango-importin beta complex formation | Q14974 | Rango CFP/YFP FRET sensor + importin beta, 45 min | Potency, µM (series often up to 92.2 µM), for the others: at the top dose inhibition of complex formation | hit rate 0.031% among 340,000 | AID 540263; active = rising FRET ratio curve, often small or poorly fitted; inconclusive = mostly compound fluorescence or quenching in the first reads; inactive = flat curves in all reads;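 further: potency means the concentration at half of the fitted maximal effect; 0% = DMSO wells and 100% = buffer wells lacking importin beta; nearly all actives have a fitted effect of over 15% in size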
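FRET biosensor Rango (snurportin 1 IBB between N-terminal EYFP and C-terminal Cerulean), 50 nM in PBS/1 mM DTT/0.02% Tween-20/0.1% BSA, preincubated 5 min RT with compound; 0.125 microM importin beta added, 45 min RT, CFP/YFP FRET ratio read.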
miR-21 FLuc: miR-21 reporter, rising signal; HeLa miR-21 FLuc reporter, luciferase, 48 h; Potency, µM (titrated, usually from 38.3 µM), for inactives: top-dose reporter change, positive = more light; 340,000 tested, under 10 active; AID 2288; active = well fitted rising curve with a large enough effect; inconclusive = small, poorly fitted or top-dose-only effect; inactive = no such curve, though single readings can be large or run the other way;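 further: % of control where 0% means no effect; miR-21 action dims this reporter so a rising signal means less miR-21 action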
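HeLa cells endogenously expressing miR-21, stably carrying CMV-driven firefly luciferase with a downstream miR-21 binding site, 2000 cells/well. Titrations up to approximately 40 uM, 48 hours; luciferase luminescence read.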
Rango release inh: prevents RanGTP from dissociating the Rango-importin beta complex; O95149+P62826; Biochemical FRET Rango-importin beta, RanGTP-induced dissociation; Potency, µM (series often up to 46.1 µM), for inactives: top-dose activity change, negative = inhibition; hit rate 0.071% among 340,000; AID 540253; active means falling FRET ratio curve, often poorly fitted, with flat reads before Ran was added; inconclusive means other falling curves, or compound fluorescence or quenching; inactive means flat or rising ratio curve;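 further: potency means the concentration at half of the fitted maximal effect; % of control where 0% means no effect; nearly all actives have a fitted effect of over 45% in size; -100% = wells without RanGTP and RCC1; the record marks most hits as doubtful in a second field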
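Rango FRET biosensor (snurportin-1 IBB flanked by N-terminal EYFP and C-terminal CFP10) at 0.1 uM, with 0.25 uM importin beta in PBS, 1mM DTT, 0.02% Tween-20, 0.1% BSA. 0.6 uM Ran, 2mM GTP and 0.2 uM RCC1 were then added for 45 min at room temperature. Inhibition read as loss of FRET rise.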
An asterisk follows results filed as active; ? = inconclusive; . = not tested or not shown; [ ] = another dose, or the depositor's remark. A portion of the library (hit frequency here may not be typical).

GLA inh pH 4.5	Structure	Rango-impB inh	miR-21 FLuc	Rango release inh
-4	O=C(NCCCN1CCOCC1)C(=O)N/N=C/c1ccccc1O	1.6%	4%	-4%
-19	CCOC(=O)c1c(C)[nH]c(C(=O)Cn2nnc(-c3ccccc3)n2)c1C	1.7%	1%	-6%
.	CC(=O)c1ccc(OC(=O)COc2ccccc2Cl)cc1	-0.2%	0%	4%
.	Cn1c(CNC(=O)c2ccccc2F)nnc1SCC(=O)Nc1nnc(C2CC2)s1	-0.3%	0%	0%
5	O=C1CC(N2CCN(c3ccccc3)CC2)C(=O)N1CCc1ccccc1 (stereo unspecified)	4.0%	-6%	1%
2	COc1ccc(CNn2c(-c3ccccc3F)nc3ccccc3c2=O)cc1OC	-0.6%	0%	-14%
-4	CCN=C1S/C(=C\c2ccc(O)c(OCC)c2)C(=O)N1CC	?	-17%	?
?	CCCCC(CC)CNC(=O)c1cccs1 (stereo unspecified)	1.7%	0%	2%
4	CC(C)C(=O)N(Cc1ccc2c(c1)OCO2)Cc1ccccn1	-3.7%	2%	-7%
1	O=C(NCCc1ccccc1)C1(c2ccccc2)CC1(Cl)Cl (stereo unspecified)	-0.7%	-1%	-8%
.	Cc1cccc(OCC(O)Cn2c(N3CCCCC3)nc3c2c(=O)n(C)c(=O)n3C)c1 (stereo unspecified)	5.0%	4%	3%
5	Cc1ccccc1NC(=O)c1cn2c(nc3ccccc32)c(C#N)c1C	?	-4%	-3%
.	Cc1cc(C)c(S(=O)(=O)N2CCN(C(=O)c3ccc(-n4cncn4)c([N+](=O)[O-])c3)CC2)c(C)c1	2.0%	.	10%
-1	CNC(=S)SCCOc1ccccc1	-3.4%	6%	-7%
.	CC1CCCCC12NC(=O)N(CC(=O)NCCc1ccc(S(N)(=O)=O)cc1)C2=O (stereo unspecified)	2.0%	.	3%
.	Cc1ccc(NC(=O)COC(=O)CNC(=O)C2CCCCC2)cc1S(=O)(=O)N(C)C	3.9%	.	8%
.	COc1cccc(C(=O)Nc2cccc(-c3ccccc3)c2)c1	0.3%	-32%	23%
-10	COc1nc(N)c(S(=O)(=O)c2ccccc2C)cc1C#N	?	-11%	?
-11	O=S(=O)(NCCCN1CCOCC1)c1ccc(Cl)s1	-1.5%	-11%	-12%
0	Cc1nc2ccccc2n1CC(=O)OCC(=O)Nc1ccc2c(c1)OCCO2	0.8%	-2%	-10%
-1	Cc1ccsc1C(=O)Nc1ccccc1N1CCOCC1	-1.0%	-3%	4%
.	Cc1c(C)c(C)c(S(=O)(=O)NCCC(=O)N2CCN(Cc3ccc(C#N)cc3)CC2)c(C)c1C	-0.7%	.	-2%
-2	O=c1c([N+](=O)[O-])cccn1Cc1ccc(F)cc1Cl	6.9%	?	-10%
-11	CCOC(=O)N1CCN(C(=O)C(=O)N/N=C/c2ccc(OC)cc2OC)CC1	0.3%	-4%	10%
.	Cc1cccc2cc(CN(CC(C)C)S(=O)(=O)c3ccccc3)c(=O)[nH]c12	-4.4%	-1%	7%
.	CCN(CC(=O)Nc1c(F)cccc1F)C(=O)C1COc2ccccc2O1 (stereo unspecified)	4.1%	.	1%
-7	O=C(Cn1cc(C(=O)c2cccs2)c2ccccc21)NCc1cccs1	3.1%	-31%	-13%
-1	CCOCCCNC(=O)C1CCCN1C(=O)NC1CCCCC1 (stereo unspecified)	4.3%	1%	-1%
.	COc1ccc(-c2cn3c(C)c(C(=O)NC(C)(C)C)sc3n2)cc1	-2.0%	-53%	-19%
6	O=C(CCC1CCCC1)Nc1cccc(Cc2ccncc2)c1	-0.1%	-4%	20%
.	CCOC(=O)c1ccc(NC(=O)Nc2c(C)n(C)n(-c3ccccc3)c2=O)cc1	3.7%	0%	10%
4	Nc1nc(Br)c2ccccc2c1-c1ccc(F)cc1	?	-12%	?
-2	COc1cccc(C2CC(c3ccccc3)n3ncnc3N2)c1 (stereo unspecified)	-2.6%	-6%	24%
.	Cc1ccc(S(=O)(=O)NCCCn2ccnc2)cc1C(=O)NC(C)C	-1.1%	-1%	1%
.	CC(C)(C)c1ccccc1NC(=O)CN1C(=O)NC(Cc2ccccc2)C1=O (stereo unspecified)	-2.6%	.	-14%
9	CN(CC(=O)Nc1ccccc1C(F)(F)F)C(=O)COc1cccnc1[N+](=O)[O-]	3.6%	-1%	-1%
-4	CC(C)(C)C(=O)CNS(=O)(=O)c1ccc(S(=O)(=O)NC2CCCC2)cc1	1.1%	4%	-13%
.	Cc1ccc(NC(=O)CCC(=O)NNC(=O)COc2ccc([N+](=O)[O-])cc2)c(C)c1	-1.6%	2%	4%
-7	O=C(NCCN1CCOCC1)c1cccc(S(=O)(=O)N2CCCCCC2)c1	1.3%	-5%	?
-8	Clc1ccc(Cn2ncc3c(N4CCCC4)ncnc32)cc1	1.2%	-8%	3%
7	CC1CCN(CC(C)OC(=O)c2ccc3c(c2)OCCO3)CC1 (stereo unspecified)	0.3%	-10%	-1%
.	O=C(Cc1ccc(F)cc1)Nc1nnc(-c2ccc(F)cc2)o1	-1.8%	3%	-22%
.	OC(C[n+]1ccccc1)c1ccccc1 (stereo unspecified)	1.4%	1%	-2%
.	Cc1nc(CCNC(=O)C2CCC(=O)N(Cc3ccc(Cl)cc3)C2)sc1C (stereo unspecified)	-5.6%	0%	25%
3	CC(=O)Nc1ccc(S(=O)(=O)NC(C)C(=O)OCC(=O)NC2CCCC2)cc1 (stereo unspecified)	-0.4%	-7%	-15%
2	O=C1CCCN1CCC1CCCCN1Cc1nc(-c2cnccn2)no1 (stereo unspecified)	3.1%	-1%	-3%
.	COC(=O)c1ccccc1NC(=O)C1CCN(C(=O)Cc2ccccc2)CC1	-9.3%	2%	9%
.	CCCN(C(=O)COC(=O)CSc1ccc([N+](=O)[O-])cc1)C1CCS(=O)(=O)C1 (stereo unspecified)	0.1%	.	13%
.	COc1ccccc1OCC(=O)NNC(=O)c1ccc(F)c(S(=O)(=O)N2CCOCC2)c1	1.1%	.	-14%
-13	C/C(=N/NC(=O)CN1CCN(S(=O)(=O)c2ccc(Br)cc2)CC1)c1ccco1	1.1%	-9%	-7%

Next section:
GLA inh pH 4.5	Structure	Rango-impB inh	miR-21 FLuc	Rango release inh
.	CCCCn1c(N)c(N(CCOC)C(=O)c2oc3ccc(OC)cc3c2C)c(=O)[nH]c1=O	-0.4%	-4%	-8%
.	CC(C)c1cc(C(=O)NC2CCCc3c2cnn3-c2ccccc2F)no1 (stereo unspecified)	-0.4%	23%	15%
.	O=C(NCc1ccc2c(c1)OCO2)C(=O)NCC1OCCN1S(=O)(=O)c1ccc(Br)cc1 (stereo unspecified)	0.5%	18%	9%
-6	N#CC1CC(c2ccc([N+](=O)[O-])cc2)=NN1c1ccc([N+](=O)[O-])cc1 (stereo unspecified)	?	2%	?
3	CC1CCCCC1NC(=S)NC(=O)c1cccs1 (stereo unspecified)	-0.1%	-12%	14%
2	O=S(=O)(NCCc1ccc2c(c1)OCCO2)c1cccs1	0.8%	-20%	-8%
-10	CCC(Sc1nc2ccc(C)cc2[nH]1)C(=O)O (stereo unspecified)	0.4%	-7%	1%
8	O=C(C1CC=CCC1)N1CCC(CO)(Cc2ccc(Cl)cc2)CC1 (stereo unspecified)	1.1%	4%	-2%
.	CCCCN(C)CCNC(=O)c1cc2c(=O)[nH]c3ccccc3c2n1C	-1.1%	0%	0%
.	C=CCC1[C@H](C)[C@H]2[C@@H]3CC[C@@H](C3)[C@H]2CN1S(=O)(=O)c1ccc(C)cc1 (stereo partly specified)	1.9%	.	0%
.	O=C(NCCN1CCCCC1)/C(=C/c1ccco1)NC(=O)c1ccccc1	-2.5%	1%	-1%
-12	COc1cccc(S(=O)(=O)Nc2ccc(C(=O)N3CCCCCC3)cc2)c1	-0.7%	4%	11%
-1	O=CN1N=C(c2ccccc2)CC1c1ccccc1[N+](=O)[O-] (stereo unspecified)	-2.4%	-3%	-7%
3	C=CCOc1ccnc(-c2ccccc2)n1	0.7%	4%	2%
-9	CC1CCN(C(=O)Cn2c(=O)n(Cc3ccc4c(c3)OCO4)c(=O)c3ccccc32)CC1	-0.1%	-10%	7%
0	Cc1cc(/C=C2\SC(=S)NC2=O)c(C)n1C1CC1	?	-36%	?
.	CCNc1c(NC(=O)C2CCC(C)CC2)c(=O)oc2ccccc12 (stereo unspecified)	0.8%	4%	-4%
.	O=C(CN1CCCC1c1ccc2c(c1)OCCO2)NC(=O)Nc1ccccc1F (stereo unspecified)	5.5%	.	-11%
6	CCOC(=O)c1sc(NC(=O)Nc2ccc(F)cc2)nc1C	-1.5%	-56%	9%
.	COc1ccc(S(=O)(=O)N2CN3CCN(C3)C2)cc1	-1.0%	-4%	1%
.	CCOC(=O)[C@H]1[C@H]2COc3cc(OC)ccc3[C@@H]2N2C(=O)c3cc(OC)ccc3NC(=O)[C@@]12C	-3.5%	.	8%
.	Cc1ccc(C(C)C)cc1OCC(=O)Nc1ccccc1N1CCCC1	3.6%	-4%	16%
.	CCOc1ccc(NS(=O)(=O)c2ccc(-c3ccc(=O)[nH]n3)o2)cc1	0.1%	-4%	-7%
-5	CN(Cc1cnn(C)c1)Cc1nc(-c2ccc(Cl)cc2)no1	-2.5%	-23%	9%
.	CC(C)(C)NC(=O)COc1ccc(S(=O)(=O)N2CCCC2)cc1	3.7%	-8%	5%
5	Cc1ccccc1C(=O)NC(=S)Nc1cccc(NC(=O)C(C)C)c1	-0.4%	-14%	22%
-12	COc1cc(C2NC(=O)NC(C)=C2[N+](=O)[O-])cc(OC)c1OC (stereo unspecified)	0.3%	-1%	17%
-29	Cc1cc(C)c2nc(NNC(=O)c3cc(-c4cccs4)nc4ccccc34)sc2c1	0.9%	?	17%
-2	COC(=O)c1cc2c(ccn2-c2ccc(F)cc2)n1Cc1ccc(C#N)cc1	2.7%	-1%	0%
1	CCOc1ccccc1NC(=S)NCC1CCCO1 (stereo unspecified)	0.7%	-4%	5%
.	Cc1cc(C(=O)N2CCN(c3ccccc3Cl)CC2)c(C)o1	0.1%	.	-1%
5[21.1 µM]	O=C(NCC1CCCO1)c1cc2c(=O)[nH]c3ccccc3c2s1 (stereo unspecified)	-5.8%	-9%	-18%
.	COc1ccccc1C(=O)O[C@H]1[C@H](Cc2ccccc2)NS(=O)(=O)[C@H]2C[C@@H]3C=C[C@]12O3	0.5%	.	24%
-4	O=S(=O)(Cc1ccc(Cl)cc1)NCc1cccnc1	-3.3%	3%	0%
.	O=C(c1ccc(S(=O)(=O)N2CCC(c3nc4ccccc4s3)CC2)cc1)N1CCCCC1	2.7%	.	4%
-16	O=C1CC(C2CCCO2)C(=O)N1c1ccc(Cl)c(Cl)c1 (stereo unspecified)	1.4%	0%	32%
.	O=C(CSc1nnc(CNC(=O)c2ccco2)o1)Nc1ccc(Cl)cc1	-0.4%	2%	-5%

Among those listed so far, 3 contain bromine:
GLA inh pH 4.5	Structure	Rango-impB inh	miR-21 FLuc	Rango release inh
4	Nc1nc(Br)c2ccccc2c1-c1ccc(F)cc1	?	-12%	?
-13	C/C(=N/NC(=O)CN1CCN(S(=O)(=O)c2ccc(Br)cc2)CC1)c1ccco1	1.1%	-9%	-7%
.	O=C(NCc1ccc2c(c1)OCO2)C(=O)NCC1OCCN1S(=O)(=O)c1ccc(Br)cc1 (stereo unspecified)	0.5%	18%	9%

Screens from PubChem.
